A1 inh: caspase 3/7 activation in MEF A1-2A-BIM cells, primary screen, A1 inhibitor project, cell-based, luminescence, HTS | Caspase-Glo 3/7 luminescence, 3 h; percent of clofoctol response, vehicle zero | caspase activation, % (no concentration beside the values) | 330,000 compounds, 0.066% hits;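 active = over half of replicate activation scores above 10%, or exactly half above 10 with the replicate mean above 10; inconclusive = replicate mean below 10 yet half the replicates above 10; inactive = over half of replicates below 10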;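 also: wells of about 30 µL received 50 nL stock; many hits fall short of the cut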
UCH37 inh: inhibitors of human UCH37 deubiquitinase, primary screen, biochemical, Ub-AMC cleavage, fluorescence. Ubiquitin carboxyl-terminal hydrolase isozyme L5 (Homo sapiens), Q9Y5K5. purified proteasome/UCH37. inhibition, % (test concentration not listed). 330,000 compounds, 0.33% hits. AID 588478, 2011;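 active = mean of two replicates above 20%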;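 also: 0% = compound-free wells with enzyme and 100% = wells lacking proteasome; stock transfer was 100 nL into about 20 µL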
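Signal – fluorescence, ex 355 nm, em 460 nm · System – Proteasome-bound UCH37 · Input – 0.15 nM proteasome as dispensed · Timing – 30 min preincubation with enzyme, 25 min cleavage at room temperature · Read-out basis – percent inhibition of cleavage signal versus uninhibited and no-proteasome wells · Medium – Tris-HCl pH 7.4 with ATP-MgCl2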
Beta2AR agonist: beta2AR agonists driving receptor internalization, primary screen, cell-based, FAP fluorogen, flow cytometry; Beta-2 adrenergic receptor (Homo sapiens), P07550; Am2.2-beta2AR cells; reference of the scale not given here; response, % (no concentration beside the values); 340,000 compounds, 0.43% hits; AID 504454, 2011;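 active = response above a set limit, near 3 SD of response in nonfluorescent compounds, cut at about 42% in these data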;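 also: stock transfer was 100 nL into about 11 µL; a reference agonist was the positive control; negative values mostly stem from fluorescent compounds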
Target sequence (P07550 whole entry, looked up): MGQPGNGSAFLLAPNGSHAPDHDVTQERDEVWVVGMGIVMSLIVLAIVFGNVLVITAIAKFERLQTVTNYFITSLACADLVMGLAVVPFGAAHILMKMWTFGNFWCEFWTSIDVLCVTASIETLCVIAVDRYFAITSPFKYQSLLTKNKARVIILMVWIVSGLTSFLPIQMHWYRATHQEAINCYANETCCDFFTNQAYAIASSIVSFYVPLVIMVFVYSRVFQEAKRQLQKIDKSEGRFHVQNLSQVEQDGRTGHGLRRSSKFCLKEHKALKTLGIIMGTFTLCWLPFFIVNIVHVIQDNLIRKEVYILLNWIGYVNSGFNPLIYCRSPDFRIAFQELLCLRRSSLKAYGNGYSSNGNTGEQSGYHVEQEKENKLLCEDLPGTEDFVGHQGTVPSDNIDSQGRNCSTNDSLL
E coli growth: E. coli growth inhibition, primary screen, OD600 | Escherichia coli growth, 23 h; hits give low values | OD600 absorbance (test concentration not listed) | 330,000 compounds, 0.21% hits | AID 1053175, 2014;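 active = OD600 absorbance below the run mean of sample wells minus 3.6 SD, in any replicate, cut at about 0.56 in these data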;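 also: stock transfer was 300 nL into about 60 µL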
Vif A3G: inhibitors of Vif binding to APOBEC3G peptide, primary screen, biochemical, TR-FRET, GST-Vif 1-94, biotin-A3G peptide, dose response retest (AID 1117319); one-dose inhibition, %; IC50 in µM for titrated hits; Virion infectivity factor (Human immunodeficiency virus type 1 group M subtype B (isolate …; TR-FRET GST-Vif / biotin-A3G peptide binding; higher % means a stronger effect; test concentration not given here; strong numbers were not always called active; 260,000 compounds, 0.57% hits;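 active = above the screen mean plus three standard deviations and confirmed in dose response; inconclusive = results disagree or hit not tested in dose response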;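 also: Vif residues 1-94 fused to GST binding biotinylated APOBEC3G peptide 110-148; 0% = full assay without inhibitor and 100% = GST in place of GST-Vif; retest series ran down from 100 µM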
HNF4A DNA FP: change in binding of human HNF4A to DNA, primary screen, biochemical, fluorescence polarization, FITC-DNA; Hepatocyte nuclear factor 4-alpha (Homo sapiens), P41235; 1 h; activity change, % at 10 µM; 360,000 compounds, 0.3% hits; AID 1224865, 2016; in the data active = activity change above about 30%, passing the limit was not always enough;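 also: controls were the assay level and a saturating level of protein; the project sought stronger binding though the title names inhibitors; some compounds called inactive have numbers as strong as hits; positive values seem to mean higher polarization but the record does not say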
Target sequence (P41235 whole entry, looked up): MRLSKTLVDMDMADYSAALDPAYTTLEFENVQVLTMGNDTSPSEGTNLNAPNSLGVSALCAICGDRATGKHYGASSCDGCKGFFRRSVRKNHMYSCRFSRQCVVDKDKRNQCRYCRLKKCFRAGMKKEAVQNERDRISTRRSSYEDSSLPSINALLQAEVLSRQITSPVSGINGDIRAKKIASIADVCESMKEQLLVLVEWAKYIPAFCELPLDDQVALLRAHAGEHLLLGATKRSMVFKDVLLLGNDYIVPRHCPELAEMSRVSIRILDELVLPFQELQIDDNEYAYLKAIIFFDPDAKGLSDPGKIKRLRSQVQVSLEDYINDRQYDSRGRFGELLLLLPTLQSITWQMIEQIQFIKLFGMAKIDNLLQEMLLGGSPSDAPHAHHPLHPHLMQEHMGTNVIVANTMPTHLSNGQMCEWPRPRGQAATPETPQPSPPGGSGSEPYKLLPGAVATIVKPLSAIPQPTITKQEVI
LANA-H2A inh: blockers of LANA interaction with H2A/H2B – biochemical, FP readout, HTS, primary screen; inhibition, % (test concentration not listed); 320,000 compounds, 0.6% hits; cell-free LANA-H2A/H2B peptide, fluorescence polarization; AID 2629, 2010; in the data active = inhibition mostly above about 10%, no sharp cut-off; inactive = mostly below about 6.7%;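 also: stock transfer was 7.5 nL into about 10 µL; 0% = median of vehicle wells and 100% = median of positive control wells; one replicate is shown; the record names a cut of 25% in any replicate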
* = called active by the depositor; ? = inconclusive; . = not tested or not shown.

SMILES,LANA-H2A inh,Beta2AR agonist,E coli growth,HNF4A DNA FP,A1 inh,UCH37 inh,Vif A3G
COc1ccccc1NC(=O)CN1CCN(S(=O)(=O)c2ccc(Br)cc2)CC1,.,-4,0.7,-1.3,.,0.0,-1%
Fc1ccc(CSc2nnc(-c3cccs3)o2)cc1,2.7,3,0.68,-0.2,-0.8,3.5,-6%
Cc1nc(-c2cccc(S(=O)(=O)N3CC(C)OC(C)C3)c2)cs1 (stereo not drawn),0.8,-1,0.68,-0.2,1.2,-1.0,-1%
Cn1c(=O)cc(NCc2ccccc2)[nH]c1=O,6.1,-7,0.69,-3.1,-0.1,3.4,78%
O=C(Nc1nc(-c2cccnc2)cs1)c1ccc(S(=O)(=O)N2CCOCC2)cc1,1.2,-5,0.67,1.5,-0.9,3.4,-3%
c1ccc(OCc2nc3c4c(ncn3n2)-c2ccccc2CC42CCCC2)cc1,3.4,-4,0.74,-1.3,1.6,2.5,1%
N=C1C(c2nc3ccccc3[nH]2)=C(O)CN1NC(=O)COc1cccc(F)c1,-2.5,.,0.7,.,0.2,0.7,-3%
COc1ccc(/C(C)=N/NC(=O)c2cc(C)[nH]n2)c(OC)c1,-0.2,-7,.,0.3,-0.3,.,.
Cc1noc(C)c1COC(=O)CCCc1nc2ccccc2s1,1.9,6,0.7,0.0,-0.4,0.4,26%
C=CCC1(C)C(=O)N(c2ccccc2)c2ccccc21 (stereo not drawn),1.6,7,0.61,1.4,?,5.9,2%
COC(=O)[C@]1(Cc2ccccc2)N[C@H](CN(C)C(=O)Nc2ccc(C)cc2)[C@@H]2C(=O)N(C)C(=O)[C@@H]21,3.1,1,0.66,1.9,-0.2,-0.4,-1%
CC(=O)Nc1ccc(NC(=O)CSc2nnc(COc3ccccc3C)n2CC2CCCO2)cc1 (stereo not drawn),-3.5,-7,0.71,-0.3,-0.3,5.3,-1%
Cc1oc2c(F)c(F)c(F)c(F)c2c1S(=O)(=O)Nc1cccc(C(F)(F)F)c1,3.4,18,0.65,-3.5,-0.5,3.0,5%
O=C(Nc1ncccn1)C12CC3CC(CC(C3)C1)C2,-1.8,-7,0.68,-3.2,0.5,-0.4,3%
CCOC(=O)c1ccc(-n2c(CN(CC)CC)nc3ccc([N+](=O)[O-])cc3c2=O)cc1,1.9,2,0.68,0.2,-0.6,5.5,8%
CCCCn1c(=O)nc2n(-c3ccc(Cl)cc3)c3ccccc3cc-2c1=O,.,7,0.69,-3.7,2.0,-90,-6%
O=C(CSc1nc(N2CCCCC2)nc(N2CCCCC2)n1)Nc1nccs1,-3.1,5,0.8,1.1,0.1,3.6,16%
COc1ccccc1C(=O)NCC(=O)OCC(=O)Nc1nnc(-c2ccccc2)o1,-1.0,4,0.7,0.3,0.2,6.1,-6%
CN1CCN(S(=O)(=O)c2ccc(N3CCN(S(=O)(=O)/C=C/c4ccccc4)CC3)nc2)CC1,1.9,-3,0.71,5.6,-0.6,5.7,-9%
CCOc1ccc(CN(C)C(=O)CN2C(=O)NC3(CCCc4ccccc43)C2=O)cc1 (stereo not drawn),-4.0,9,0.7,0.6,-0.6,3.5,-20%
O=C(CN1CCCCC1)Nc1nnc(-c2ccccc2)s1,10,0,0.69,5.0,0.8,.,73%
CCCCN1C(=O)C(=O)N(CC(=O)Nc2cc(OCC)c(N3CCOCC3)cc2OCC)C1=O,2.2,-1,0.64,3.8,0.0,-0.4,14%
COc1ccc(N(CC(=O)NCCSC2CCCCC2)S(=O)(=O)c2ccccc2)cc1OC,-4.0,5,0.67,3.7,0.0,-0.1,1%
O=C1C(Cc2ccc(O)cc2)NC(=S)N1C1CCCCC1 (stereo not drawn),6.0,-2,0.69,-1.6,0.4,3.1,14%
C=CCSc1nc2c(c(=O)[nH]1)C(c1ccccc1)C(C#N)=C(N)O2 (stereo not drawn),5.1,8,0.68,-1.0,0.4,5.9,.
N/C(=N\OC(=O)c1cccc2ccccc12)c1cccnc1,11,-1,0.69,1.4,-1.3,1.7,-5%
CC(=O)NS(=O)(=O)c1ccc(NC(=O)/C=C/c2ccccc2Cl)cc1,3.4,15,0.7,-2.5,0.3,6.4,0%
CCCS(=O)(=O)N1CCC(C(=O)NCCN(CC)c2ccccc2)CC1,3.4,-5,0.7,-2.7,1.4,1.6,9%
CCOc1ccc(-c2nnc(SCC(=O)Nc3ccc4c(c3)c3ccccc3n4CC)n2N)cc1,2.1,6,0.72,-0.8,2.1,-15,5%
S=C(NCc1ccc(Cl)cc1)Nc1ccccc1,3.1,-5,0.67,3.7,1.1,2.3,-2%
CCCOc1ccc(/C=N/Nc2ccc(C(=O)O)cc2)c(OCCC)c1,.,9,.,-3.7,.,.,-8%
COc1cccc(NC(=O)COC(=O)c2ccc(C)c(S(=O)(=O)N3CCCCC3)c2)c1,-5.0,15,0.72,3.3,-1.2,2.1,-8%
O=C(O)CCCC(=O)NNc1nc(-c2ccccc2)c2cc(Cl)ccc2n1,-5.5,2,0.66,-1.4,0.3,4.7,.
COc1cccc(-c2nc(=S)c3c(n2Cc2ccco2)CCCC3)c1,-4.6,3,0.69,-1.7,-0.2,1.3,20%
CC(C)NC(=O)CSc1ccccc1C(=O)N1CCN(S(=O)(=O)Cc2ccccc2)CC1,.,4,0.68,-4.3,.,0.4,-1%
COc1cccc(C=NNC(=O)C2CC2)c1,.,-4,0.66,-0.5,.,4.1,-3%
CC(C)N(Cc1ccccc1)C(=O)COC(=O)c1ccc2c(c1)OCCO2,-0.1,-8,0.68,2.4,-0.4,1.9,?
O=C(O)C(Cc1ccc(Cl)cc1)NS(=O)(=O)c1ccc(Cl)cc1 (stereo not drawn),0.9,0,0.64,-0.9,0.0,2.4,-1%
Cc1ccc(NC(=S)N/N=C/c2c(C)[nH]c3ccccc23)cc1,-0.5,-7,.,12,-0.9,.,27%
COc1cc(C(=O)N[C@H](C(=O)NC(C)C23CC4CC(CC(C4)C2)C3)C(C)C)cc(OC)c1OC (stereo partly drawn),-2.4,-3,0.79,-1.6,0.7,4.1,-1%

Among those listed so far, 2 contain a furan ring, fused or not:
SMILES,LANA-H2A inh,Beta2AR agonist,E coli growth,HNF4A DNA FP,A1 inh,UCH37 inh,Vif A3G
Cc1oc2c(F)c(F)c(F)c(F)c2c1S(=O)(=O)Nc1cccc(C(F)(F)F)c1,3.4,18,0.65,-3.5,-0.5,3.0,5%
COc1cccc(-c2nc(=S)c3c(n2Cc2ccco2)CCCC3)c1,-4.6,3,0.69,-1.7,-0.2,1.3,20%

New compounds follow
SMILES,LANA-H2A inh,Beta2AR agonist,E coli growth,HNF4A DNA FP,A1 inh,UCH37 inh,Vif A3G
O=C1c2ccccc2S(=O)(=O)c2cc(C(=O)N3CCC(C(=O)N4CCCCC4)CC3)ccc21,1.4,.,0.67,.,-1.0,1.0,.
Cc1cccc(NC(=O)CSc2nnc(-c3cc(C)n(-c4ccccc4)c3C)o2)c1C,5.7,-6,0.74,-0.2,-0.3,2.9,13%
CC(C)OC(=O)CSc1nc2cccnc2n1-c1ccc(F)cc1,2.2,2,0.72,0.0,-1.2,1.9,-2%
CCOC(=O)c1[nH]c(C)c(C(=O)N2CCc3c([nH]c4ccccc34)C2c2ccccn2)c1C (stereo not drawn),-2.5,1,0.69,1.1,0.8,1.5,8%
Cc1ccc(S(=O)(=O)N2[C@@H](c3cccc(Cl)c3)C(C(=O)O)=CC[C@H]2c2ccc3c(c2)OCO3)cc1,-3.9,0,.,-2.5,-0.4,16,.
CCC(/C=N/NC(=O)CCCCC(=O)N/N=C/C(CC)CC)CC,0.6,-6,.,5.0,-0.5,.,-8%
CCCSCCCNC(=O)Cn1nc(CC)n2c(cc3c(OC)cccc32)c1=O,2.4,-1,0.69,0.3,0.3,-87,-9%
Cn1c(SCc2c(F)cccc2Cl)nnc1-c1cnccn1,0.6,8,0.67,1.6,-1.1,1.4,13%
Cn1nc(C(=O)NC2CCCc3ccccc32)ccc1=O (stereo not drawn),3.6,-1,0.7,5.1,0.1,-0.5,-9%
Brc1ccc(-c2nnc3n2C2(CCCC2)Cc2ccccc2-3)o1,-3.7,8,0.67,1.7,0.3,-0.9,32%
CC(C)Cn1c(N)c(C(=O)COC(=O)CCc2nc3ccccc3c(=O)[nH]2)c(=O)n(C)c1=O,3.1,16,0.68,0.3,1.3,0.5,-7%
CC(=O)Oc1ccc(N(c2ccccc2)S(=O)(=O)c2ccc(C)cc2)cc1,5.2,-8,0.68,-0.1,1.5,1.0,.
Cc1ccc(NC(=O)CN(C(=O)N2CCN(C)CC2)S(=O)(=O)c2ccc(C)cc2)cc1,-2.3,-12,0.7,0.8,-1.7,1.9,-7%
O=C(O)c1ccc(CSc2ccccn2)cc1,2.5,4,0.64,-0.5,-1.8,3.2,.
O=C(c1cccs1)N1CCN(Cc2ccncc2)CC1,-1.9,8,0.7,-2.5,-0.2,-0.1,2%
O=C(Nc1nc(-c2ccc(F)cc2)cs1)C1CCN(C(=O)c2ccc(F)cc2)CC1,-3.1,6,0.65,2.2,1.1,0.4,5%
CCOC(=O)Cc1csc(NC(=O)CCS(=O)(=O)Cc2ccccc2)n1,3.3,9,0.67,-1.6,-0.7,2.2,8%
CCN(CC)C(=O)CSc1n[nH]c(=O)n1CCc1ccccc1,0.9,4,0.7,1.2,1.0,2.8,-11%
O=S(N1CCCCCC1)C12CC3CC(CC(C3)C1)C2 (stereo not drawn),2.3,4,0.75,1.0,0.4,-0.4,-1%
O=C(COC(=O)c1cc[n+]([O-])cc1)Nc1cccc(F)c1,2.4,4,0.71,-0.8,0.2,3.2,.
CN(C)c1ccc(C=NNc2nc3c([nH]2)c(=O)n(C)c(=O)n3C)cc1,.,12,0.66,1.6,.,-16,-8%
CC1CN(C(=O)COC(=O)c2cccs2)CC(C)O1 (stereo not drawn),-0.8,0,0.74,1.0,0.0,3.4,3%
CCOC(=O)N1C=CC=C[C@@H]2[C@@H](N3C(=O)c4ccccc4C3=O)C(=O)N21,2.1,-10,0.66,-0.3,1.0,3.0,2%
COc1ccc(/C=C/C(=O)NCCN2CCOCC2)cc1OC,1.6,-1,0.66,0.4,0.4,-22,2%
CCc1cc(C(c2ccccn2)N2CCN(C)CC2)c(NC(=O)c2ccccc2)s1 (stereo not drawn),3.7,-11,0.69,2.3,-0.4,2.4,.
O=C(c1ccccc1)c1ccc(NCCCn2ccnc2)c([N+](=O)[O-])c1,-0.2,-13,.,0.8,-0.2,.,6%
O=C(NCc1cccc(C(F)(F)F)c1)c1cccc(S(=O)(=O)NCc2ccccc2)c1,-4.9,17,0.72,5.5,0.4,5.5,28%
CC(=O)c1ccc(NC(=O)C2(S(=O)(=O)c3ccccc3)CC2)cc1,-4.6,2,0.71,0.5,0.0,4.6,13%
O=S(=O)(c1ccc(NC(=S)N2CCN(c3ccccc3F)CC2)cc1)N1CCOCC1,1.3,5,0.7,2.1,-0.1,3.9,2%

Screening data (PubChem BioAssay)

Hits appear at their usual frequency (roughly 2.1% active in at least one column).
